UUG fidelity = yeast start codon fidelity modulation. S. cerevisiae UUG-firefly luciferase reporter, luminescence/redox ratio. activity score, % at 18.7 µM. 0.13% of 350,000 active. AID 602363;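 active means replicate mean at a twofold rise or more, about +100% in these data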;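 further: firefly luciferase made from a UUG start codon reports start codon fidelity; reporter light over untreated wells divided by growth signal over untreated wells; some hits fall short of that in this replicate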
HIV Env fusion = HIV envelope-mediated fusion inhibition. HeLa-JRFL Env/CEM21 cell fusion, luciferase. inhibition, % at 12.3 µM. 1.1% of 360,000 active. AID 651610;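 active means mean replicate inhibition score of at least 50 and every replicate individually at or above 50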;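 further: 0% = plate neutral controls and 100% = maraviroc near 300 nM; one replicate is shown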
Starred values were filed as active, the others as inactive; [ ] = dose if it differs, or a comment. These rows are one share of the data; count on the stated rates, not on these rows.

UUG fidelity,HIV Env fusion,canonical_smiles
-8.1,1.1[16.7 µM],CNC[C@H]1Oc2ccc(N(C)C)cc2C(=O)N([C@@H](C)CO)C[C@@H]1C
15.6,34.3[16.7 µM],C[C@@H]1CN([C@@H](C)CO)C(=O)c2cc(NC(=O)Cc3ccccc3)ccc2O[C@@H](C)CCCCO[C@@H]1CN(C)C(=O)Nc1ccccc1
10.3,-30.0[16.7 µM],Cc1cc(C(=O)Nc2cccc3c2O[C@H](CN(C)C(=O)NC2CCCCC2)[C@H](C)CN([C@H](C)CO)C3=O)n(C)n1
-0.1,-177.4[16.7 µM],C[C@@H]1CCCCO[C@H](CN(C)S(=O)(=O)c2ccccc2)[C@H](C)CN([C@@H](C)CO)C(=O)c2cc(NC(=O)Nc3cccc4ccccc34)ccc2O1
4.8,3.0[16.7 µM],C[C@@H]1CN([C@H](C)CO)C(=O)c2cc(NC(=O)Cc3cn(C)c4ccccc34)ccc2O[C@@H]1CN(C)CC1CC1
4.7,6.6[16.7 µM],CCCC(=O)Nc1ccc2c(c1)C(=O)N(C)[C@@H]1CC[C@@H](CC(=O)NCC3CCCCC3)O[C@H]1CO2
2.0,-8.7[16.7 µM],C[C@H](O)C#Cc1ccc2c(c1)O[C@H](CN(C)C(=O)C1CC1)[C@@H](C)CN([C@@H](C)CO)S2(=O)=O
13.2,-36.2[16.7 µM],C[C@H](CO)N1C[C@H](C)[C@@H](CN(C)C(=O)Cc2cccnc2)Oc2ncc(-c3cccnc3)cc2C1=O
-7.9,14.1[16.7 µM],C[C@@H]1CN([C@H](C)CO)C(=O)c2cccc(NS(=O)(=O)c3cn(C)cn3)c2O[C@@H]1CN(C)S(=O)(=O)c1ccccc1
4.7,13.7[16.7 µM],CO[C@H]1CN(C)C(=O)c2cc(NC(=O)c3nc4ccccc4s3)ccc2OC[C@@H](C)N(Cc2ccncc2)C[C@@H]1C
2.9,6.9[16.7 µM],C[C@H]1CN([C@@H](C)CO)C(=O)c2cccc(NS(=O)(=O)c3cccs3)c2O[C@@H]1CN(C)S(=O)(=O)c1ccc(F)cc1
-5.6,-19.4[16.7 µM],COC(=O)C[C@@H]1C[C@H]2c3cc(NS(=O)(=O)c4ccc(F)cc4)ccc3O[C@H]2[C@@H](CO)O1
10.7,23.3[16.7 µM],C[C@H]1CCCCO[C@H](CN(C)S(=O)(=O)c2cn(C)cn2)[C@@H](C)CN([C@@H](C)CO)C(=O)c2cc(NC(=O)C3CCCCC3)ccc2O1
-9.1,-3.3[16.7 µM],C[C@H](CO)N1C[C@H](C)[C@H](CN(C)Cc2ccc(C(=O)O)cc2)Oc2c(NS(=O)(=O)c3cn(C)cn3)cccc2C1=O
-16.0,-17.0[16.7 µM],Cc1cc(C(=O)Nc2cccc3c2O[C@@H](CN(C)CC2CC2)[C@H](C)CN([C@@H](C)CO)C3=O)n(C)n1
-10.6,8.6[16.7 µM],CN1CCN(C(=O)C[C@H]2CC[C@@H](NS(=O)(=O)c3cccc(F)c3)[C@H](CO)O2)CC1
-10.1,19.9[16.7 µM],C[C@H]1CN([C@@H](C)CO)C(=O)c2cccc(NC(=O)C3CCCCC3)c2O[C@@H]1CN(C)CC1CC1
-14.6,-4.8[16.7 µM],C[C@@H]1CCCCO[C@H](CN(C)S(=O)(=O)c2ccccc2)[C@@H](C)CN([C@H](C)CO)C(=O)c2cc(NC(=O)c3ccncc3)ccc2O1
6.1,-8.6[16.7 µM],Cc1noc(C)c1NC(=O)Nc1ccc2c(c1)C(=O)N([C@@H](C)CO)C[C@@H](C)[C@@H](CN(C)Cc1ccc3c(c1)OCO3)OCCCC[C@@H](C)O2
-3.5,-6.3[16.7 µM],Cc1noc(C)c1S(=O)(=O)N(C)C[C@@H]1Oc2ccc(NC(=O)CCCN(C)C)cc2C(=O)N([C@@H](C)CO)C[C@@H]1C
61.1,-13.6[16.7 µM],COc1ccc(NC(=O)Nc2ccc3c(c2)C(=O)N([C@@H](C)CO)C[C@H](C)[C@H](CN(C)C(=O)c2ccccc2)OCCCC[C@@H](C)O3)cc1
18.8,7.4[16.7 µM],CC(=O)N(C)C[C@@H]1Oc2ncc(C#CCc3ccccc3)cc2C(=O)N([C@H](C)CO)C[C@H]1C
1.5,-15.3[16.7 µM],CCCNC(=O)N(C)C[C@@H]1Oc2ncc(-c3cccc(C#N)c3)cc2C(=O)N([C@@H](C)CO)C[C@H]1C
-3.6,-33.6[16.7 µM],CC(C)NC(=O)N(C)C[C@H]1OCCCC[C@@H](C)Oc2ccc(NS(=O)(=O)c3ccc(F)cc3)cc2C(=O)N([C@@H](C)CO)C[C@@H]1C
-13.6,-7.0[16.7 µM],C[C@@H]1CCCCO[C@@H](CN(C)C(=O)Nc2ccccc2)[C@H](C)CN([C@@H](C)CO)C(=O)c2cc(NC(=O)C3CCCCC3)ccc2O1
24.5,15.4[16.7 µM],O=C(C[C@H]1CC[C@H]2[C@@H](COC[C@H](O)CN2CCC(F)(F)F)O1)NCc1ccc2c(c1)OCO2
-9.3,-9.4[16.7 µM],Cc1noc(C)c1S(=O)(=O)N(C)C[C@H]1Oc2ccc(NC(=O)Cc3cn(C)c4ccccc34)cc2CC(=O)N([C@@H](C)CO)C[C@@H]1C
-7.4,18.3[16.7 µM],C[C@@H]1CN([C@H](C)CO)C(=O)Cc2cc(NC(=O)C3CCCCC3)ccc2O[C@@H]1CN(C)Cc1ccncc1
7.6,4.3[16.7 µM],COc1ccc(NC(=O)N(C)C[C@H]2Oc3cc(C#CCN(C)C)ccc3S(=O)(=O)N([C@@H](C)CO)C[C@@H]2C)cc1
16.9,-11.2[16.7 µM],CCCN1C[C@H](C)[C@H](OC)CN(C)C(=O)c2cc(NC(=O)c3ccccc3)ccc2OC[C@H]1C
-11.1,2.3[16.7 µM],COCC(=O)Nc1ccc2c(c1)C(=O)N(C)C[C@@H](OC)[C@@H](C)CN(C(C)=O)[C@@H](C)CO2
4.4,-51.7[16.7 µM],C[C@@H]1CCCCO[C@H](CN(C)S(=O)(=O)c2cccs2)[C@H](C)CN([C@@H](C)CO)C(=O)c2cc(NS(=O)(=O)c3cn(C)cn3)ccc2O1
4.9,-21.9[16.7 µM],CC(C)NC(=O)N(C)C[C@H]1Oc2cc(C#Cc3ccccn3)ccc2S(=O)(=O)N([C@@H](C)CO)C[C@@H]1C
-12.9,-6.0[16.7 µM],CN1CCN(C(=O)C[C@H]2CC[C@@H]3[C@H](COC[C@@H](O)CN3C(=O)c3ccccc3F)O2)CC1
7.2,-9.9[16.7 µM],C[C@@H]1CN([C@@H](C)CO)C(=O)c2cc(N(C)C)ccc2O[C@@H](C)CCCCO[C@H]1CN(C)C(=O)c1ccccc1
-4.5,1.2[16.7 µM],C[C@H](CO)N1C[C@H](C)[C@H](CN(C)Cc2ccc(C(F)(F)F)cc2)Oc2c(NS(C)(=O)=O)cccc2C1=O
-15.2,32.6[16.7 µM],C[C@H](O)C#Cc1ccc2c(c1)O[C@@H](CN(C)C)[C@@H](C)CN([C@@H](C)CO)S2(=O)=O
1.5,-1.5[16.7 µM],Cc1noc(C)c1S(=O)(=O)Nc1ccc2c(c1)C(=O)N([C@H](C)CO)C[C@H](C)[C@H](CN(C)CC1CCCCC1)O2
-4.4,-4.6[16.7 µM],C[C@H]1CN([C@@H](C)CO)C(=O)Cc2cc(NC(=O)Nc3ccc(C(F)(F)F)cc3)ccc2O[C@@H]1CN(C)S(=O)(=O)c1cn(C)cn1
-12.5,36.5[16.7 µM],Cc1ccccc1-c1ccc2c(c1)O[C@H](CN(C)Cc1ccncc1)[C@H](C)CN([C@@H](C)CO)S2(=O)=O
-3.4,0.6[16.7 µM],C[C@H](CO)N1C[C@H](C)[C@@H](CN(C)C(=O)CC2CC2)Oc2cc(-c3ccncc3)ccc2S1(=O)=O
-11.4,33.8[16.7 µM],C[C@H]1CCCCO[C@H](CN(C)C(=O)Nc2ccccc2)[C@@H](C)CN([C@@H](C)CO)C(=O)c2cc(NC(=O)Nc3ccc(F)cc3)ccc2O1
-3.9,-6.3[16.7 µM],COc1ccc(CN(C)C[C@H]2Oc3ccc(NC(=O)Nc4cccc5ccccc45)cc3C(=O)N([C@H](C)CO)C[C@H]2C)cc1
-1.8,3.5[16.7 µM],Cc1cc(C(=O)Nc2cccc3c2O[C@@H](CN(C)C)[C@H](C)CN([C@H](C)CO)C3=O)n(C)n1
14.4,-2.9[16.7 µM],CCC(=O)N1C[C@H](O)COC[C@H]2O[C@H](CC(=O)NCc3ccc(Oc4ccccc4)cc3)CC[C@@H]21
-9.7,-18.2[16.7 µM],Cc1noc(C)c1NC(=O)N(C)C[C@@H]1OCCCC[C@H](C)Oc2ccc(NC(=O)NC3CCCCC3)cc2C(=O)N([C@@H](C)CO)C[C@H]1C
-7.5,10.6[16.7 µM],O=C(C[C@H]1CC[C@H](NC(=O)C2CC2)[C@@H](CO)O1)NCCCN1CCOCC1
4.1,31.6[16.7 µM],C[C@H]1CCCCO[C@@H](CN(C)C)[C@@H](C)CN([C@@H](C)CO)C(=O)c2cc(NC(=O)Nc3cccc4ccccc34)ccc2O1
1.8,-19.5[16.7 µM],CC(C)NC(=O)Nc1cccc2c1O[C@H](CN(C)C(=O)Nc1cccc3ccccc13)[C@H](C)CN([C@@H](C)CO)C2=O
-5.5,4.5[16.7 µM],C[C@H](CO)N1C[C@H](C)[C@H](CN(C)C(=O)c2ccncc2)Oc2cc(/C=C/c3ccccc3)ccc2S1(=O)=O
23.9,31.9[16.7 µM],CC(C)NC(=O)N[C@@H]1CC[C@H](CC(=O)NCc2ccc(Oc3ccccc3)cc2)O[C@H]1CO
3.7,-6.6[16.7 µM],CN(C)C(=O)C[C@H]1CC[C@@H]2[C@H](COC[C@@H](O)CN2Cc2ccc(C(F)(F)F)cc2)O1
-8.7,-17.5[16.7 µM],C[C@H](CO)N1C[C@H](C)[C@H](CN(C)CC2CCOCC2)Oc2ncc(-c3ccc(C#N)cc3)cc2C1=O
18.2,26.1[16.7 µM],CC(=O)N(C)C[C@H]1Oc2cc(-c3cccnc3)ccc2S(=O)(=O)N([C@H](C)CO)C[C@H]1C
0.9,-14.2[16.7 µM],C[C@@H]1CN([C@@H](C)CO)C(=O)c2cc(NS(=O)(=O)c3cccs3)ccc2O[C@@H](C)CCCCO[C@H]1CN(C)C(=O)CCCN(C)C
1.5,25.1[16.7 µM],C[C@H](CO)N1C[C@H](C)[C@@H](CN(C)C(=O)C2CC2)Oc2cc(C#Cc3ccncc3)ccc2S1(=O)=O
0.7,-6.9[16.7 µM],CO[C@H]1CN(C)C(=O)c2ccc(NC(=O)C3CC3)cc2OC[C@@H](C)N(C(=O)c2ccccc2F)C[C@@H]1C
3.4,-0.4[16.7 µM],O=C(N[C@@H]1CC[C@@H](CCNS(=O)(=O)c2cccc(Cl)c2)O[C@H]1CO)c1ccccc1
-24.2,-15.8[16.7 µM],C[C@H]1CN([C@@H](C)CO)C(=O)c2cc(-c3ccccc3)cnc2O[C@H]1CN(C)C(=O)Cc1ccccn1
-14.7,-9.6[16.7 µM],C[C@@H]1CN([C@H](C)CO)C(=O)c2cc(/C=C/c3ccccc3)cnc2O[C@H]1CN(C)C(=O)c1cccnc1

Exported field by field: part of the list above.
Compound: O=C(N[C@@H]1CC[C@@H](CCNS(=O)(=O)c2cccc(Cl)c2)O[C@H]1CO)c1ccccc1
- UUG fidelity: 3.4
- HIV Env fusion: -0.4[16.7 µM]
Compound: C[C@H]1CN([C@@H](C)CO)C(=O)c2cc(-c3ccccc3)cnc2O[C@H]1CN(C)C(=O)Cc1ccccn1
- UUG fidelity: -24.2
- HIV Env fusion: -15.8[16.7 µM]

The listing picks up; the 3 compounds before the break are reprinted first.
UUG fidelity,HIV Env fusion,canonical_smiles
3.4,-0.4[16.7 µM],O=C(N[C@@H]1CC[C@@H](CCNS(=O)(=O)c2cccc(Cl)c2)O[C@H]1CO)c1ccccc1
-24.2,-15.8[16.7 µM],C[C@H]1CN([C@@H](C)CO)C(=O)c2cc(-c3ccccc3)cnc2O[C@H]1CN(C)C(=O)Cc1ccccn1
-14.7,-9.6[16.7 µM],C[C@@H]1CN([C@H](C)CO)C(=O)c2cc(/C=C/c3ccccc3)cnc2O[C@H]1CN(C)C(=O)c1cccnc1
16.6,-21.0[16.7 µM],C[C@@H]1CCCCO[C@@H](CN(C)C(=O)c2ccccc2)[C@@H](C)CN([C@@H](C)CO)C(=O)c2cc(NS(=O)(=O)c3cccs3)ccc2O1
-9.8,9.5[16.7 µM],CCNC(=O)C[C@@H]1CC[C@@H](NS(=O)(=O)c2ccc(F)cc2)[C@H](CO)O1
-20.0,-28.6[16.7 µM],O=C(C[C@@H]1CC[C@H](NC(=O)C2CCC2)[C@@H](CO)O1)NCCCN1CCOCC1
65.9,12.2[16.7 µM],C[C@@H]1CN([C@@H](C)CO)C(=O)c2cc(C3=CCCCC3)cnc2O[C@@H]1CN(C)C(=O)Cc1ccncc1
-11.2,20.4[16.7 µM],CCCNC(=O)N1C[C@@H](O)COC[C@@H]2O[C@@H](CC(=O)NCc3ccc(Cl)c(Cl)c3)CC[C@H]21
8.9,-6.8[16.7 µM],COc1ccc(NC(=O)Nc2ccc3c(c2)OC[C@H](C)NC[C@@H](C)[C@H](OC)CN(C)C3=O)cc1
-2.6,14.8[16.7 µM],CCCNC(=O)N(C)C[C@@H]1Oc2ncc(C#CCC3CCCC3)cc2C(=O)N([C@@H](C)CO)C[C@H]1C
-15.3,-10.6[16.7 µM],O=C(Cc1ccncc1)NCC[C@H]1CC[C@@H](NC(=O)C2CC2)[C@H](CO)O1
-10.0,27.9[16.7 µM],C[C@@H]1CCCCO[C@@H](CN(C)S(=O)(=O)c2ccc(Cl)cc2)[C@H](C)CN([C@H](C)CO)C(=O)c2cc(NC(=O)Nc3ccccc3)ccc2O1

Compound activity: PubChem BioAssay, Broad Institute
